Screening data (PubChem BioAssay)
VDR inhibitor: blocks the human vitamin D receptor | P11473 | VDR-SRC2-3 peptide fluorescence polarization, 2 h | Potency, µM, without a hit: max response, negative = inhibition, actives largely listed as inhibitors | 400,000 tested, 0.93% active | AID 504847; active means well fitted inhibition curve with a large enough effect; inconclusive means small, poorly fitted or top-dose-only effect, or another doubt; inactive means no such curve, though single readings can be large or run the other way; further: series mostly up to about 120 µM
Target sequence (P11473 whole entry, looked up): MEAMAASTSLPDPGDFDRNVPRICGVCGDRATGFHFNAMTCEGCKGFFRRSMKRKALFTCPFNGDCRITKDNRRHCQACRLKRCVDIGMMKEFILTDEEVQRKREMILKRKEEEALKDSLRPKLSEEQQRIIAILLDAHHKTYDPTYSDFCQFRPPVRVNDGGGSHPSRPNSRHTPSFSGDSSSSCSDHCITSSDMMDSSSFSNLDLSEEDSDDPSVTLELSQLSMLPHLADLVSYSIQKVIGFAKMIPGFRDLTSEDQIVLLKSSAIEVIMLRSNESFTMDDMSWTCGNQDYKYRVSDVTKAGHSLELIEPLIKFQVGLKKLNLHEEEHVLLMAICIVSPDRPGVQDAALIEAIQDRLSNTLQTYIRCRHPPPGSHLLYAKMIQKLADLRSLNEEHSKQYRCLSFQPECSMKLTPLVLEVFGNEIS
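Inhibition of the VDR/SRC2-3 peptide interaction is quantified by fluorescence polarization. Compounds (23 nl, pintool) incubate with the reagents for 2 hours at ambient room temperature.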
Active calls of the source: *; ? = inconclusive; & = joins results of further samples. On the % scale 0 is the no-effect control and ±100 the full control effect; potency means the concentration at half of the fitted maximal effect. Not all compounds are listed; the hit share may differ from the screen's.

SMILES | VDR inhibitor
Cc1ccc(SCC(=O)N2CCCC2)cc1 | -15%
CC(=O)N1c2ccc(S(=O)(=O)N(C)c3cc(C)ccc3C)cc2CC1C (stereo not given) | -11%
CC1CN=C(N(C(=O)Nc2ccccc2)C(C)c2ccccc2)S1 (stereo not given) | -10%
COc1ccc(S(=O)(=O)Nc2cccc3c2O[C@H](CN(C)C)[C@@H](C)CN([C@H](C)CO)C3=O)cc1 | 8%
O=C(c1ccco1)N1CCN(S(=O)(=O)c2cc(Cl)ccc2Cl)CC1 | -22%
CCOC(=O)c1nn(-c2ccccc2)c(=O)cc1OCC(=O)Nc1cccc(OC)c1 | 2%
COc1cc2c(C(=O)Nc3ccc(C)cc3Br)cn(C)c(=O)c2cc1OC | 2%
C[C@H](NC(=O)c1nc[nH]c1C(=O)N1CCc2ccccc2C1)C(=O)OCc1ccccc1 | 7%
CCOC(=O)N1CCN(C(=O)c2ccc(NC(=O)c3ccc(C)cc3)cc2)CC1 | 14%
COC(=O)c1cc(S(=O)(=O)N2CCC(C)CC2)cn1C | -11%
CC(=O)OCC1OC(n2cnc3c(Cl)nc(Cl)nc32)C(OC(C)=O)C1OC(C)=O (stereo not given) | 2%
CNC(=S)NN(c1ccccc1)c1ccccc1 | -30%
CC(NC(=O)Nc1ccc([N+](=O)[O-])cc1)C(c1cccs1)N1CCCC1 (stereo not given) | -21%
Cc1ccccc1OCC(=O)NCC(=O)OCC(=O)c1ccc2c(c1)CCCC2 | -4%
CCOC(=O)c1cccc(NC(=O)Nc2ccc3c(c2)C(=O)OC3)c1 | -2%
COc1ccc2oc(-c3ccc(C)c(NC(=O)c4ccc5c(c4)OCCO5)c3)nc2c1 | 3%

Random excerpt: three entries already listed, in no set order.
SMILES | VDR inhibitor
CNC(=S)NN(c1ccccc1)c1ccccc1 | -30%
C[C@H](NC(=O)c1nc[nH]c1C(=O)N1CCc2ccccc2C1)C(=O)OCc1ccccc1 | 7%
CC1CN=C(N(C(=O)Nc2ccccc2)C(C)c2ccccc2)S1 (stereo not given) | -10%

Continued:
SMILES | VDR inhibitor
Cc1ccc2nc(NCCNC(=O)c3ccccc3)c(C#N)cc2c1 | -14%
O=C(O)c1sccc1S(=O)(=O)c1ccccc1 | 4%
COc1cccc(C(=O)O/N=C/c2ccc(Sc3ccc(C)cc3)nc2)c1 | -14%
COc1ccc(OC)c(S(=O)(=O)Nc2ccc(CC(=O)O)cc2)c1 | -4%
Cc1ccc(OCC(=O)OC(C)CN(C)Cc2ccccc2)cc1 (stereo not given) | 7%
Cc1ccc(CNC(=O)c2ccccc2N(C)S(C)(=O)=O)cc1 | 5%
CCCn1c(C)cc(/C=C(\C#N)C(=O)OCC(=O)N(CC)c2c(N)n(Cc3ccccc3)c(=O)[nH]c2=O)c1C | -14%
Cc1ccccc1N1CCN(C2CCCN(C(=O)CN3CCCC3=O)C2)CC1 (stereo not given) | 1%
COc1ccc(N(Cc2cc3cc(OC)ccc3[nH]c2=O)S(=O)(=O)c2ccc(NC(C)=O)cc2)cc1 | 16%
CN(C)S(=O)(=O)c1ccc(N2CCCC2)c(C(=O)Nc2ccc(C(N)=O)cc2)c1 | -18%
CCC(C)c1ccc(NC(=S)Nc2ccc(OC)c(OC)c2)cc1 (stereo not given) | -3%
O=C(CSCc1c(F)cccc1Cl)NCc1ccncc1 | -10%
Cc1cccc(-n2c(SCC(=O)N3CC(=O)Nc4ccccc43)nc3ccccc3c2=O)c1C | -11%
Cc1ccc(C(=O)Nc2nnc(S(=O)(=O)N3CCCc4ccccc43)s2)cc1 | 1%
CN1CCN(c2ccccc2NC(=O)Cc2ccc(Cl)cc2)CC1 | -14%
COc1ccccc1C(C)NCC(=O)NCC(=O)Nc1ccc(F)c(F)c1F (stereo not given) | 13%
COc1ccc(C2c3ccc(O)cc3Oc3ncn(Cc4ccco4)c(=N)c32)cc1OC (stereo not given) | 3%
COc1cccc(C(=O)Nc2nnc(-c3ccc(OC)cc3OC)s2)c1 | -5%
Cc1cc(C)nc(NC(=O)c2cccc(Cl)c2)n1 | 3%
COc1ccc(S(=O)(=O)N2CCCCC2)cc1NC(=O)COc1ccccc1 | 10%
Cc1nc2nc(SCC(=O)N(Cc3ccccc3)C(C)C)nn2c(C)c1Cc1ccccc1Cl | 11%
Cc1nccn1CC(O)Cn1c2ccccc2c2ccccc21 (stereo not given) | -6%
Nc1cccc(-n2nnnc2CN2CCOCC2)c1 | 45µM*
NNC(=O)COc1ccc(-c2n[nH]c(C(F)(F)F)c2-c2ccc(Br)cc2)c(O)c1 | -14%
NC(=O)C1CCN(c2ncnc3c(-c4ccccc4)nsc23)CC1 | -4%
O=C(NCCc1ccccc1)c1noc2c1CCCCC2 | -4%
CCOc1ccc(N=Nc2c(C)[nH]n(-c3ccccc3)c2=O)cc1 | 6%
CC(C)(C)C1CCc2c(sc(NC(=O)Cn3nnc(-c4ccccc4Cl)n3)c2C#N)C1 (stereo not given) | -6%
CC1=C(C)C(=O)C(C(CCCCCC(=O)O)c2ccccc2)=C(C)C1=O (stereo not given) | ?
NC(=O)C1CCN(c2nc(-c3cccc(N)c3)cs2)CC1 | 7%
Cc1ccc(SCCC(=O)N/N=C/c2ccncc2)cc1 | -5%
O=C(Cc1ccccc1)NCC(=O)OCc1ccccc1F | 7%
COc1ccc(Nc2ncnc3ccccc23)c(OC)c1 | 21%
COc1ccc(-c2nc(CNS(=O)(=O)c3ccccc3)cs2)cc1 | -5%
O=C1OCC(c2ccccc2)=C1c1ccccc1[N+](=O)[O-] | -3%
O=c1[nH]c2ccccc2c(=O)n1Cc1ccccc1 | 10%
CCc1nnc(SC(CC)C(=O)NCCOC)c2cc3occc3n12 (stereo not given) | 2%
CCOC(=O)CC1COc2ccccc2N1C(=O)c1ccc(C)cc1 (stereo not given) | -1%
CCN1C(=O)[C@@H]2[C@@H](c3ccc(-c4ccc(OC)cc4)c(OC)c3)N3CCC[C@@]3(C(=O)OC)[C@@H]2C1=O | -4%
Cc1nnc(N/N=C\c2ccc(-c3ccccc3[N+](=O)[O-])o2)n1N | -16%
CCCCc1nc2ccccc2c(NC(=O)CN2CCCC2)c1CCC | 6%
CC(=O)Nc1cccc(-n2nnc(SCC(=O)N(C)c3ccccc3)n2)c1 | -10%
Cc1cc(NC(=O)CSc2nnc(-c3cccc(Cl)c3)o2)no1 | -13%
COCCCN(C(=O)C1CCC1)c1c(N)n(Cc2ccccc2)c(=O)[nH]c1=O | 5%
Cc1ccccc1CSc1ccc(-c2cccs2)nn1 | -3%
Cc1cccc(C(=O)Nc2cccc3c2CCCC3)c1 | 20%
NC(=O)c1ccc(SCC(=O)OCC(=O)NCC2CCCCC2)c([N+](=O)[O-])c1 | -4%
CNC(=O)c1sccc1SCc1c(Cl)cccc1Cl | -18%
COc1ccc(N2CC(NC(=O)C(=O)c3c[nH]c4ccccc34)CC2=O)cc1 (stereo not given) | 16%
Cc1ccccc1-c1noc(-c2ccccc2OCC(=O)Nc2cccc([N+](=O)[O-])c2)n1 | 14%
CCc1ccc2c(c1)C1(SC(NC(C)=O)=NN1C(C)=O)C(=O)N2CC (stereo not given) | -6%
CC1CCc2c(C(=O)NCC3CCCO3)csc2C1 (stereo not given) | -2%
COc1ccc(-c2nc(SCC(=O)N3CCCCC3C)n[nH]2)cc1 (stereo not given) | 6%
NC(=NC(=O)c1ccccc1)N1CCOCC1 | 2%
COc1ccc(NC(=O)c2[nH]c(C)c(C(C)=O)c2C)cc1 | 14%
CC(=O)N1CCC(=NNc2nc3ccccc3[nH]2)CC1 | -4%

4 of these compounds, set out differently:
> COc1ccc(-c2nc(SCC(=O)N3CCCCC3C)n[nH]2)cc1 (stereo not given)
- VDR inhibitor = 6%

> NC(=NC(=O)c1ccccc1)N1CCOCC1
- VDR inhibitor = 2%

> COc1ccc(NC(=O)c2[nH]c(C)c(C(C)=O)c2C)cc1
- VDR inhibitor = 14%

> CC(=O)N1CCC(=NNc2nc3ccccc3[nH]2)CC1
- VDR inhibitor = -4%

(next part)
SMILES | VDR inhibitor
COc1cc(C)c(NC(=O)COc2cccc3c2OC(C)(C)C3)cc1OC | 1%
COc1ccc(-c2cc(C(=O)NNC(=O)c3csc(N4CCOCC4)n3)c3ccccc3n2)cc1 | -23%
Cc1nn(C(C)C(=O)O)c2ccccc12 (stereo not given) | -29%
O=C(Nc1ccc([N+](=O)[O-])cc1NC(=O)c1ccccc1)c1ccccc1 | -3%
O=c1/c(=C\c2ccc(O)cc2)sc2nc(-c3ccccc3)c(-c3ccccc3)n12 | -1%
COc1ccc(C(=O)NCc2ccco2)cc1S(=O)(=O)NC1CC1 | -2%
CCC(=O)NNc1nc2c(F)cccc2s1 | -5%
O=C(COc1ccc(/C=N/NS(=O)(=O)c2ccccc2)cc1)NCCc1ccccc1 | 6%

Shown with the structure last: part of the list above
VDR inhibitor,Structure
-2%,COc1ccc(C(=O)NCc2ccco2)cc1S(=O)(=O)NC1CC1
-5%,CCC(=O)NNc1nc2c(F)cccc2s1

Additional records follow:
SMILES | VDR inhibitor
Cn1c(=O)c2c(nc(NCCNC(=O)c3ccco3)n2Cc2ccccc2)n(C)c1=O | -6%
CCC(c1nnnn1CC1CCCO1)N(CCCO)Cc1cc2cccc(C)c2[nH]c1=O (stereo not given) | -14%
CCOP(=O)(OCC)C(NC(=O)Nc1cccc(Cl)c1)c1ccccc1 (stereo not given) | -9%
CCN(CC)C(=O)[C@H]1C[C@H](CC(=O)NCc2cccc(C(F)(F)F)c2)C(=O)N2CCc3c([nH]c4ccc(Cl)cc34)[C@]12C | 11%
O=C(CC(=O)c1ccccc1)Nc1ccccn1 | 3%
O=C(O)Cn1nc(C(F)(F)F)c2c1CCCCC2 | 5%
COC(=O)c1sc(NC(=O)c2oc3ccccc3c2C)nc1C | 12%
O=C1CCCCC1C(=O)c1ccccc1 (stereo not given) | 1%
Cc1cc2ncn(C3CC(=O)N(Cc4ccc(N5CCCC5=O)cc4)C3=O)c2cc1C (stereo not given) | -8%
CCCCCn1c(N)c(C#N)c2nc3ccccc3nc21 | ?
COc1nc(C)nc(NC(=O)NS(=O)(=O)c2ccc(C)cc2)n1 | -11%
CCOC(CNC(=O)c1ccc(CNC(=O)c2ccc(OC)c(OC)c2)cc1)OCC | 11%
Cc1cc(C)n(CCCNCC(O)c2ccccc2)n1 (stereo not given) | -14%&15%
Cc1cc(C)c(NC(=O)CCN2C(=O)c3ccccc3Sc3ncccc32)c(C)c1 | 0%
O=C(CN1CCN(c2ccccc2O)CC1)Nc1ccccc1C(=O)NCCc1ccccc1 | 11%
CC(C(=O)NCc1ccc2c(c1)OCO2)N1c2cccc3cccc(c23)S1(=O)=O (stereo not given) | 17%
CN1CCC(=O)N([C@H](CN=[N+]=[N-])Cc2ccccc2)CC1 | -13%
CC(=O)Nc1ccccc1NC(=O)C/C(C)=N/NC(=O)C(=O)Nc1cccc(Cl)c1C | -12%
CC(=O)N1CCc2cc(S(=O)(=O)CCC(=O)NCc3ccc(Cl)cc3)ccc21 | -1%&16%
Cc1ccc2[nH]c(=O)c(CN(Cc3cccnc3)C(=O)c3ccncc3)cc2c1 | -5%
CCN(CC(=O)NC1CCS(=O)(=O)C1)S(=O)(=O)c1cc([N+](=O)[O-])ccc1C (stereo not given) | -6%
Clc1ccc(N2CCN(c3ncnc4c3cnn4-c3ccccc3)CC2)cc1Cl | 10%
CCCCC(=O)Nc1ccc(NC(=O)c2ccccc2OC)cn1 | -14%
CCOC(=O)c1nnc2cc(-c3ccc(Br)cc3)nn2c1C | 6%
CC(C)CNS(=O)(=O)c1ccc(OCC(=O)NCC2CCCO2)c(Cl)c1 (stereo not given) | -4%
O=C(CCC(=O)N1CCN(c2ccccn2)CC1)c1cccs1 | -21%
c1ccc2c(NCCN3CCOCC3)nc(-c3ccoc3)nc2c1 | -10%
NS(=O)(=O)c1ccc(CNC(=O)C23CC4CC(CC(C4)C2)C3)cc1 | -3%
Cc1cccc(CCNc2nc3ccccc3n3nnnc23)c1 | 2%
O=C(c1c[nH]c(C(=O)N2CCN(c3ccccc3F)CC2)c1)c1cccc(Cl)c1Cl | 8%
Cn1ccnc1SCC(=O)NC1CC1 | 2%
COC(=O)/C(=C\Nc1ccc(Cl)cc1Cl)NC(=O)c1ccc(OC)cc1 | 10%
Cc1cnc(CNC(=O)c2ccc3oc(C(C)C)nc3c2)[nH]1 | -6%
COc1ccc(OCCCSc2ncccn2)cc1 | -9%
C=CCN1C2CCCC1CC(NC(=S)Nc1ccc(Cl)cc1)C2 (stereo not given) | -3%
Nc1nonc1/C(=N/O)N1CCCC1 | 1%
C/C=C/c1ccc(OCCCCNCc2ccco2)c(OC)c1 | -17%
Cc1[nH]c2c(C(=O)N3CCCC(CCC(=O)NCc4ccccc4F)C3)cccc2c1C (stereo not given) | -10%
COc1ccc(CCNC(=O)/C=C/c2ccc(C)cc2)cc1OC | -6%
O=C(CCN1C(=O)C2C3C=CC(C3)C2C1=O)NCC1CCCO1 (stereo not given) | 3%
CCOc1ccccc1NC(=O)CSc1nc2c(c(=O)[nH]1)CCC2 | 23%
COc1ccc(S(=O)(=O)NCCc2sc(-c3cccc(C)c3)nc2C)cc1 | 6%
Clc1ccccc1-c1ncc(-c2ccccc2)o1 | 4%
